CDC25B-CDK2 inh = human CDC25B-CDK2/CyclinA binding inhibition; P30305+P24941; HTRF CDC25B-CDK2/CyclinA binding, anti-His/anti-Flag; hits give high values; z-score (test concentration not listed); 94,000 tested, 0.72% active;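 note: score is relative to mean and SD of negative controls; strong numbers were not always called active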
TAR Tat displ = HIV-1 TAR-Tat binding disruption; 100,000 tested, 0.6% active; z-score (concentration not given with the values); HIV-1 TAR RNA, Tat peptide displacement FRET; hits give high values;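 note: score is relative to mean and SD of negative controls; some compounds called inactive have numbers as strong as hits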
The depositor's hits bear a star; . = not tested or not shown.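 Rule for the calls: active = z-score from 3 up in half or more of its runs; inactive = the rest.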

A first look:
smiles,CDC25B-CDK2 inh,TAR Tat displ
COC(=O)c1sccc1S(=O)(=O)Nc1ccc(OC)c(OC)c1,.,1.69
COc1ccc(Br)cc1C1N2CC3(C)CN1CC(C)(C2)C3=O (stereo not drawn),-2.19,-0.5
Cn1c2ccccc2c2cnn(CC(=O)Nc3ccccc3Br)c(=O)c21,-0.72,0.4
O=C(/C=C/c1ccsc1)Nc1cc(C(F)(F)F)cc(C(F)(F)F)c1,-1.96,.

The whole of this part, from the start:
smiles,CDC25B-CDK2 inh,TAR Tat displ
COC(=O)c1sccc1S(=O)(=O)Nc1ccc(OC)c(OC)c1,.,1.69
COc1ccc(Br)cc1C1N2CC3(C)CN1CC(C)(C2)C3=O (stereo not drawn),-2.19,-0.5
Cn1c2ccccc2c2cnn(CC(=O)Nc3ccccc3Br)c(=O)c21,-0.72,0.4
O=C(/C=C/c1ccsc1)Nc1cc(C(F)(F)F)cc(C(F)(F)F)c1,-1.96,.
CCSc1nc2c(c(=O)[nH]1)C(c1ccncc1)C(C(=O)OC(C)C)=C(C)N2 (stereo not drawn),-0.33,.
CCCN1C(=O)CCc2cc(NS(=O)(=O)CCC)ccc21,.,1.87
Cc1cc(F)ccc1Nc1nc2ccccc2n2cnnc12,-0.66,0.82
CCSc1nccc(C(F)(F)F)c1C(=O)Nc1c(C)cccc1C,-1.16,.
O=C(c1ccco1)N(CCN(C(=O)c1ccco1)c1ccccc1)c1ccccc1,-0.51,0.35
O=C(Cn1ccn(Cc2ccccc2)c(=O)c1=O)c1ccc(Br)cc1,.,-0.17
O=c1c2cccnc2n(Cc2ccc(F)cc2)c(=O)n1Cc1cccs1,-0.78,-0.54
CCc1nc(-c2nn(-c3ccc(Cl)cc3)c(=O)n(CC(=O)O)c2=O)no1,-1.59,-0.71
CC(=O)c1ccc(Cl)c(NC(=O)NS(=O)(=O)c2ccc(C)cc2)c1,0.56,.
CCN1CCN(CCCNC(=O)c2cc3sccc3n2C)CC1,-2.94,-2.35
CCOC(=O)c1cn[nH]c1S(=O)(=O)N1CCCC(C)C1 (stereo not drawn),.,1.23

The list goes on; the last four above are carried over.
smiles,CDC25B-CDK2 inh,TAR Tat displ
CCc1nc(-c2nn(-c3ccc(Cl)cc3)c(=O)n(CC(=O)O)c2=O)no1,-1.59,-0.71
CC(=O)c1ccc(Cl)c(NC(=O)NS(=O)(=O)c2ccc(C)cc2)c1,0.56,.
CCN1CCN(CCCNC(=O)c2cc3sccc3n2C)CC1,-2.94,-2.35
CCOC(=O)c1cn[nH]c1S(=O)(=O)N1CCCC(C)C1 (stereo not drawn),.,1.23
Cc1cc(C)cc(NC(=O)Cn2nc3c4scc(-c5ccc(F)cc5)c4ncn3c2=O)c1,.,1.01
Cc1cc(N2CCc3ccccc3C2)n2ncnc2n1,-0.86,-0.84
CC(C)CCn1c(N2CCCCC2)nc2c1c(=O)[nH]c(=O)n2C,1.09,1.63
CCOc1ccc(OCC)c(NC(=O)c2[nH]c(C)c(C(C)=O)c2C)c1,-0.56,.
CC(C)(C)OC(=O)NCC(=O)Oc1ccc2c(=O)c(-c3ccc4c(c3)OCCO4)coc2c1,-1.72,.
CC(Oc1ccccc1)c1nc2ccccc2[nH]1 (stereo not drawn),-1.1,1.52
O=C(Nc1cccc(Cl)c1)c1sc(=S)n2c1[nH]c(=O)c1ccccc12,.,0.65
CCCC12CN3CC(CCC)(CN(C1)C3c1ccc(OC(C)C)cc1)C2=O (stereo not drawn),-2.24,.
O=C(NCCc1ccco1)C1CCCN(S(=O)(=O)c2ccc3[nH]c(=O)oc3c2)C1 (stereo not drawn),.,-0.43
Cc1nn(CC(=O)O)c(C)c1[N+](=O)[O-],.,0.67
Cc1ccccc1C1CCCN1C(=O)c1cc(C2CC2)on1 (stereo not drawn),-0.39,0.87
COc1ccc(CNS(=O)(=O)c2cc(Br)cnc2N)cc1,-2.14,0.28
CCN1C(=O)C2(/C(=C(/O)c3ccc4c(c3)CC(C)O4)C(=O)C(=O)N2CCOC)c2ccccc21 (stereo not drawn),-0.6,3.97
COCCn1c(Cc2cccn2C)nnc1SCC(=O)Nc1cc(C)on1,-0.46,0.08
CC1(C)CC(=O)C2=C(C1)Nc1cc(C(=O)c3ccccc3)ccc1NC2c1ccccn1 (stereo not drawn),-1.37,.

Carrying on:
smiles,CDC25B-CDK2 inh,TAR Tat displ
CCn1c(CC2C(=O)Nc3ccc(Br)cc32)nc2ccccc2c1=O (stereo not drawn),-0.99,-0.75
CC1=C(C(=O)OC(C)(C)C)C(C)C(C(=O)OC(C)(C)C)=C(C)N1,0.22,.
N#Cc1nc(COc2cccc(Cl)c2)oc1NCc1ccco1,-0.68,3.64
CCC1=NN(c2ccccc2)C(=O)C1,10.1*,-0.73
O=C(Nc1ccccc1C(=O)O)c1cccc(N2C(=O)c3cccc([N+](=O)[O-])c3C2=O)c1,0.93,.
Cc1nnc(N2CCN(C(=O)Nc3ccc(F)cc3)CC2)c2nn(-c3ccc(Cl)cc3)c(C)c12,.,0.26
CC(C)Cc1nn2c(=O)cc(COC(=O)C(C)Oc3ccccc3)nc2s1 (stereo not drawn),.,0.94
COCCCNC(=O)c1csc2c1CCCC2,-1.85,0.56
Cc1ccc(C2CC(c3cccc(NS(C)(=O)=O)c3)=NN2C(=O)C(C)(C)C)cc1 (stereo not drawn),-1.42,.
C=C(C)Cn1c(CN2CCOCC2)nc2c1c(=O)[nH]c(=O)n2C,-1,-1.85
Nc1c(C(=O)NCc2ccco2)nnn1Cc1ccc(Cl)cc1,-0.08,.
CN(C)/C=N/S(=O)(=O)c1cc(Cl)sc1Cl,-0.06,.
Cc1nc(-c2ccc(C)c(S(=O)(=O)NCCc3ccc(Cl)cc3)c2)cs1,.,0.72
CCCCn1nc(NS(C)(=O)=O)c2cc3ccc(C)cc3nc21,-4.67,0.28
Cc1nc2sccn2c(=O)c1S(=O)(=O)NCc1ccccc1,-1.16,0.89

(more compounds)
smiles,CDC25B-CDK2 inh,TAR Tat displ
COc1ccc2c(C)nc(Nc3nc(C)c(C)c(=O)[nH]3)nc2c1,1.35,.
O=C(CCc1nc(-c2cccs2)no1)Nc1ccncc1,-1.39,1.56
CCNC(=O)CSc1ncc(C(=O)OCC)c(N)n1,.,2.22
Fc1ccc(C(NCc2cccs2)c2nnc(-c3ccccc3)o2)cc1 (stereo not drawn),.,1.24
O=c1ccc(-c2ccc(S(=O)(=O)Nc3cccc(Br)c3)o2)n[nH]1,.,0.65
Cc1nn(-c2ccccc2)nc1C(=O)Nc1ccc2c(c1)OCCO2,-0.55,.
O=C(O)c1ccc2c(c1)C(=O)c1cc(C(=O)O)ccc1-2,-0.82,2.6
Cc1ccc(S(=O)(=O)NC(C)C(c2cccs2)N2CCN(c3ccccc3)CC2)cc1 (stereo not drawn),-1,.
CCOC(=O)c1[nH]c(C)c(CCC(=O)NCc2c(C)nn(C)c2C)c1C,.,0.56
Cc1ccc(NS(C)(=O)=O)cc1N=Cc1cccs1,-2.8,.
CC1=Nc2cc(C(=O)NCCCOC(C)C)ccc2Sc2ccc(C)cc21,0.84,.
Cc1c(C(=O)NC2CCCC2)oc2ccc3c(c12)C=CC1(CCCC1)O3,.,2.33
Cc1cc2c(cc1S(=O)(=O)C(C)CC(=O)NC1CCCC1)OCC(=O)N2 (stereo not drawn),.,0.54
O=C(NCC1COc2ccccc2O1)c1cc2c(s1)-c1ccccc1OC2 (stereo not drawn),0.95,0.53
O=c1[nH]nc(SCc2nc(COc3ccc([N+](=O)[O-])cc3)no2)n1Cc1ccco1,0.56,.

Next part
smiles,CDC25B-CDK2 inh,TAR Tat displ
CCn1c(C)c(C(C)=O)c(N2CCN(Cc3ccccc3)CC2)nc1=S,-0.49,.
CN(Cc1ccco1)C(=O)C1CCN(c2nnc(-n3cccc3)s2)CC1,.,1.94
CSc1nc2ccc3nc(NC(C)=O)sc3c2s1,-0.74,.
CN(C(=O)Cn1cccc1C1=NC(c2ccccc2)CO1)c1ccccc1 (stereo not drawn),.,0.83
COc1cccc(NS(=O)(=O)c2cc(Br)cnc2N)c1,-2.73,3.04
COc1ccc(OCCn2c(C3CCCO3)nc3ccccc32)cc1 (stereo not drawn),-0.97,1.88
COc1cccc(OCCCSc2nc(-c3ccc(Cl)cc3)nc3cc(=O)[nH]n23)c1,.,-1.36
CC(NC(=O)CSc1nc(-c2ccccc2)nc2cc(=O)[nH]n12)c1nc2ccccc2[nH]1 (stereo not drawn),.,0.41
Cc1cc(C(F)(F)F)nc2snc(Br)c12,-0.01,.
O=C(CSc1ccc(-c2cccs2)nn1)N1CCCCC1,.,0.45
Cc1nc(NC2=NCN(Cc3ccccc3)CN2)nc2c(C)cccc12,1.94,.
CCCCN1C(=O)C(O)(CC(=O)c2cc(OC)ccc2OC)c2cc(Br)ccc21 (stereo not drawn),-0.46,0.52
Cc1cc(NCc2ccc(F)cc2)nc2cc(O)ccc12,-0.84,.
CC12CN3CC(C)(CN(C1)C31C(=O)Nc3ccc(Br)cc31)C2=O (stereo not drawn),-2.17,.
O=C(CCC(=O)N1CCOc2ccccc21)Nc1ccccc1Br,-0.6,-0.19

(continued)
smiles,CDC25B-CDK2 inh,TAR Tat displ
CC1CCCC(NC(=O)C2(C)Cn3c(nc4ccccc43)C(=O)N2CC2CCCO2)C1C (stereo not drawn),.,-0.75
CCOc1cc(C2Nc3ccccc3NC3=C2C(=O)CC(C)(C)C3)ccc1O (stereo not drawn),0.49,-4.37
COc1cc2c(cc1OC)n(CC(=O)NC(C)c1ccc3c(c1)OCCO3)n1c(C)cc(=O)nc21 (stereo not drawn),-2.64,2.56
Cn1ncc2c(NCc3ccc(F)cc3)nc(N3CCCCC3)nc21,.,1.47
Cc1ccc(-n2c(C)nc3c(cnn3-c3ccc(Cl)cc3)c2=O)cc1C,-1.74,.
COc1ccc(NC(=O)CCS(=O)(=O)c2ccc3c(c2)CC(C)N3C(=O)C2CC2)c(OC)c1 (stereo not drawn),.,-1.55
CC(=O)N1c2ccc(S(=O)(=O)N3CCOCC3)cc2CC1C(=O)NCCN1CCOCC1 (stereo not drawn),.,1.86
COC(=O)c1ccc(CSCCN)o1,-0.73,.
CC1CCCC(NC(=O)C2(C)Cn3c(cc4sccc43)C(=O)N2Cc2ccco2)C1C (stereo not drawn),-2.83,2.23
CCOc1cc(-c2cccs2)cc(=O)c2c(C)oc(C)c12,0.36,1.56
CCOC(=O)Cn1cc(Cl)ccc1=O,-2.12,.
O=c1cc(CSc2nc3ccccc3s2)[nH]c2nc3ccccc3n12,-1.26,0.83
CC(C)CCn1c(=O)c2sccc2n2c(CCCC(=O)N3CCN(c4ncccn4)CC3)nnc12,.,-2.09
Cc1ccc(S(=O)(=O)c2nnn3c2nc(NCCCOC(C)C)c2sccc23)cc1C,.,0.69
Cc1ccc(S(=O)(=O)c2ccc(C(=O)O)cn2)cc1,0.91,1.14

The results go on:
smiles,CDC25B-CDK2 inh,TAR Tat displ
COc1ccc2c(c1)CC(NC(=O)Nc1cccc(Cl)c1)CO2 (stereo not drawn),.,0.76
CN(C)/C=C/C(=O)c1ccc(-c2cc(C(F)(F)F)n(C)n2)s1,-2.26,.
Cc1cccc(OCc2nn3c(-c4ccc(F)cc4)nnc3s2)c1,-0.96,1.86
COC(=O)C1=C(C)NC(=O)NC1c1ccc(O)c(OC)c1 (stereo not drawn),-0.24,.
O=C(NCC1CCCO1)Nc1ccc(CCc2nc3ccccc3[nH]2)cc1 (stereo not drawn),.,1.48
Cc1cc(C)c2c(-n3cccc3)c(C(=O)NCc3cccs3)sc2n1,-1.27,-0.85
CC(C)N(C(=O)Cn1cc(SCC(N)=O)c2ccccc21)C(C)C,.,0.18
c1ccc2c(c1)nc1n2CN(C2CCCCCC2)CN1,1.59,.
CNc1ncnc(Sc2ccc(Cl)cc2)c1[N+](=O)[O-],-0.97,.
CC(C)n1cnc2nc(CSc3ccc(NC(=O)C(C)(C)C)cc3)cc(=O)n21,-2.14,-0.42
CCc1ccccc1-n1ncc2c1ncn1nc(-c3ccccc3)nc21,1.12,0.25
CCCN1CCN(C(=O)c2sc3ncnc(N4CCCCC4C)c3c2C)CC1 (stereo not drawn),-0.66,.
O=C(NCC(c1cccs1)S(=O)(=O)c1ccc(Cl)cc1)C(=O)NC1CCCCC1 (stereo not drawn),.,0.6
CNC(=O)NNC(=O)Cn1nnc(N2CCCCC2)n1,-0.38,.
CCOC(=O)CNC(=O)N1Cc2c(sc3c2CCCC3)-n2cccc2C1c1cc(F)cc(F)c1 (stereo not drawn),.,0.55

Continuation:
smiles,CDC25B-CDK2 inh,TAR Tat displ
Cc1ccc(SCc2cc(=O)n3c4c(sc3n2)CCCC4)cc1,-0.8,1.38
CCCCC(=O)N(c1ccc(Cl)cc1)C1C=CS(=O)(=O)C1 (stereo not drawn),-3.53,-0.67
CCOC(=O)c1cn2c(=O)c3ccccc3nc2c2ccccc12,-1.87,0.13
CN(C)c1nc(Oc2ccc(=O)n(C)n2)nc(N(C)C)n1,-1.41,1.19
Cc1cc(/C=C(\C#N)S(C)(=O)=O)c(C)n1-c1ccc(C(F)(F)F)cc1,-0.82,.
Cc1ccc2c(CC(=O)Nc3sc4c(c3C(=O)NCC3CCCO3)CCCC4)coc2c1C (stereo not drawn),0.11,1.66
CCOC(=O)N1CCC(Nc2c(N3CCN(C4CCCCC4)CC3)c(=O)c2=O)CC1,-2.89,-0.32
Fc1cccc(CN2CCN(C3CCCC3)CC2)c1,-1.21,2.81
CC(C)COC(=O)c1ccc(N2CC(O)=C(c3nc4ccccc4[nH]3)C2=N)cc1,2.3,0.87
CCc1cc2c(=O)c(-c3nc4ccccc4n3C)coc2cc1OC(C)=O,-1.67,0.63
CCOC(=O)C(C)Nc1ncnc2onc(C)c12 (stereo not drawn),-0.42,-1.41

Screens: PubChem BioAssay, Center for Chemical Genomics, University of Michigan
